# Assay outcomes from PubChem.
# Rce1 inh: yeast Ras-converting enzyme inhibition. Q03530. yeast membranes, quenched prenylated peptide cleavage fluorescence. calls only. hit rate 0.27% among 290,000. AID 2563;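 active = fall in fluorescence gain of 50% or more versus controls, with final raw signal at or below 3038400; inconclusive = same 50% fall but final raw signal above 3038400; inactive = fall in fluorescence gain under 50%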;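 note: plate controls were neutral control wells for no effect and wells lacking membranes for full effect; tested at 10 µM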
# CSC inhib: blocks cancer stem cells; hit rate 1.1% among 300,000; inhibition, % at 7.5 µM; AID 2717; cancer stem cell-like cells viability, luminescence;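 active = mean at 75% or more and at least half the replicates too; inconclusive = mean and replicates disagree; tested in HMLE shEcad cells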;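 note: 0% = median of negative and 100% = median of positive control wells; the first replicate is given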
# MT1-MMP act inh: inhibitors of human MT1-MMP activation. HT1080 RFP-PRO-GFP cells, GFP/RFP ratio fluorescence, overnight; percent of plate control window, DMSO zero. AID 651647. P50281. hit rate 0.061% among 360,000. GFP/RFP ratio change, % at 20 µM;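 active = GFP/RFP ratio change of at least 30% with cell ATP level not reduced by more than half and red fluorescence within 50% of control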; note: strong numbers were not always called active
#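 Test system: HT1080 RFP-PRO-GFP cells; Benchmarks: DMSO and RFP-L50D-GFP cell wells; Timing: cells overnight before dosing, compound overnight, 37 °C, 5% CO2; Compound: one 20 µM compound dose with 1% DMSO; Read-out: GFP/RFP fluorescence ratio.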
# Env fusion inh: HIV envelope-mediated fusion inhibition. HeLa-JRFL Env/CEM21 cell fusion, luciferase. inhibition, % at 12.3 µM. hit rate 1.1% among 360,000. AID 651610;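 active = mean replicate inhibition score of at least 50 and every replicate individually at or above 50; inconclusive = only one of the two criteria met; inactive = mean below 50 and not all replicates reaching 50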;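 note: 0% = plate neutral controls and 100% = maraviroc near 300 nM; one replicate is shown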
# UUG fidelity: alters start codon recognition fidelity in yeast; hit rate 0.13% among 350,000; AID 602363; activity score, % at 18.7 µM; S. cerevisiae UUG-firefly luciferase reporter, luminescence/redox ratio;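 active = replicate mean at a twofold rise or more, about +100% in these data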;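 note: firefly luciferase made from a UUG start codon reports start codon fidelity; reporter light over untreated wells divided by growth signal over untreated wells; some hits fall short of that in this replicate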
# eIF4H FP inh: inhibitors of RNA binding by human eIF4H | Q15056 | AID 2012 | eIF4H fluorescence polarization binding assay | hit rate 0.94% among 290,000 | inhibition, % at 35 µM;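 active = 50% or more with normal probe brightness, or confirmed in later tests; inconclusive = above 50% with abnormal brightness, or retests that disagree; inactive = below 50% or failed in later tests; about a fifth of its hits are not listed in these tables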;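 note: calls also rest on retests at 20 µM and on dose response follow-up; 0% = protein and probe with vehicle and 100% = probe without protein; strong numbers were not always called active; many hits fall short of the cut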
# PABP polyA inh: blocks human PABP binding to poly(A) RNA; AID 2014; fluorescence polarization; P11940; inhibition, % at 35 µM; hit rate 1% among 290,000;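 active = 50% or more with normal probe brightness, or confirmed in later tests; inconclusive = above 50% with abnormal brightness, or retests that disagree; inactive = below 50% or failed in later tests; about a fifth of its hits are not listed in these tables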;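 note: calls also rest on retests at 20 µM and on dose response follow-up; controls were probe without protein and protein plus probe with vehicle; some compounds called inactive have numbers as strong as hits; many hits fall short of the cut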
# Target sequence (P11940 whole entry, looked up): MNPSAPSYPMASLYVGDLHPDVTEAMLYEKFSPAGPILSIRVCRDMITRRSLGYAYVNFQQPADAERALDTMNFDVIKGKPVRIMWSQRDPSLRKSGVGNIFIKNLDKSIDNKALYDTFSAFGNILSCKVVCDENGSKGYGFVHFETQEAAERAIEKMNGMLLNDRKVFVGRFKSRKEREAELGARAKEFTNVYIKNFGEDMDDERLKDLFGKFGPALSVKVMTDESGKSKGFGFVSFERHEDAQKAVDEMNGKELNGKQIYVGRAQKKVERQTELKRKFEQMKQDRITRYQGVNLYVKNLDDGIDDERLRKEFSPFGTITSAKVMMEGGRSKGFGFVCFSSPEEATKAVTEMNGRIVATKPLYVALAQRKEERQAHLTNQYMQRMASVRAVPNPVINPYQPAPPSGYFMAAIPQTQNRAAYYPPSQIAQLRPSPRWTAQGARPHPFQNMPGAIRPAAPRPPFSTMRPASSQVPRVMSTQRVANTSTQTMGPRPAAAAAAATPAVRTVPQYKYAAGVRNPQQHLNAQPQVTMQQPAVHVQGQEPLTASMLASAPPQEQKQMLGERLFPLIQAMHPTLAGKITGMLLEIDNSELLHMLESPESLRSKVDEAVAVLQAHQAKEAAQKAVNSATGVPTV
# eIF4H FP inh retest: second read-out of eIF4H FP inh, no call of its own (marks repeat the call); inhibition, %; compound at 20 µM; confirmation average;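 mean of two retest wells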
# PABP polyA inh retest: second read-out of PABP polyA inh, no call of its own (marks repeat the call); inhibition, %; compound at 20 µM; confirmation repeats;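 mean of two retest wells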
# MT1-MMP act inh RFP: recorded beside MT1-MMP act inh, whose call it bears; RFP signal change, %; measured here: RFP expression control read;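 0 = vehicle wells; hits needed this value within 50% of zero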
# Active calls of the source: *; i = inactive; ? = inconclusive; · = not tested or not shown. Compounds as they come (roughly 3% active in at least one column).
SMILES,Rce1 inh,CSC inhib,MT1-MMP act inh,MT1-MMP act inh RFP,Env fusion inh,UUG fidelity,eIF4H FP inh,PABP polyA inh,others
CCCn1c(SCC(=O)Nc2ccccc2CC)nnc1C(C)C,i,4,-1,3,·,-5,2,-3,
COc1ccc(NC(=O)CSc2n[nH]c(CNc3cccc(C)c3)n2)cc1,i,·,3,-2,1,-3,0,0,
COc1ccc(NC(=O)CCCn2c(=S)[nH]c3ccccc3c2=O)cc1,i,4,0,-1,-20,-14,-7,5,
CC(NC(=O)c1ccco1)C(=O)N1CCN(c2cccc(Cl)c2)CC1 (centres undefined),·,·,0,1,-2,-9,·,·,
COc1nnc(-c2ccc(C(=O)N3C[C@@H]4C[C@H](C3)c3cccc(=O)n3C4)cc2)c2ccccc12,i,·,4,13,·,·,1,-6,
CCc1ccc2cc(C)cnc2n1,·,·,0,5,-5,-17,·,·,
CCC(Sc1ncccc1C(=O)O)C(=O)N1CCOCC1 (centres undefined),i,-6,3,6,-26,7,-4,-2,
CS(=O)(=O)N(CC(=O)O)c1cc(C(F)(F)F)ccc1Cl,·,-13,8,6,9,-12,·,·,
CCN(CC)CCN1C(=O)C2C(C(=O)Nc3cc(C)cc(C)c3)C3C=CC2(O3)C1C(=O)NC1CCCCC1 (centres undefined),i,-47,1,1,14,-18,2,4,
CC1CN(CCc2ccccc2)C(C)C/C1=N/O (centres undefined),i,23,6,4,-39,·,·,·,
COc1ccc(C(C)(O)c2nc(-c3ccc(F)c(Cl)c3)cs2)cc1 (centres undefined),·,·,0,-3,-16,-4,·,·,
CC(C)Sc1oc(-c2ccco2)nc1S(=O)(=O)c1ccc(F)cc1,i,-3,-14,0,18,1,58,-1,eIF4H FP inh retest=-4;PABP polyA inh retest=15
CCOC(=O)c1c(C)[nH]c(C)c1C(=O)COC(=O)c1ccc(Cl)c(S(=O)(=O)NCc2ccccc2)c1,i,·,1,-7,-87,6,5,3,
Cc1cccc(NC(=O)c2nc[nH]c2C(=O)N[C@@H](C)CO)c1,·,·,3,4,?,-3,·,·,
C#CCSc1nc2sc3c(c2c(=O)n1C)CCC3,i,7,-2,0,2,-4,63*,38*,eIF4H FP inh retest=71*;PABP polyA inh retest=59*
CCN(CC)CCNc1nc(C(F)(F)F)nc2c1nnn2Cc1ccccc1,i,0,-2,0,13,-1,0,2,
CC1CCN(CCn2c(=S)[nH]c3ccccc3c2=O)CC1,i,-8,1,0,3,-13,-7,-9,
COc1ccc(Cl)cc1S(=O)(=O)N1CCN(C(=O)COc2ccccc2)CC1,i,-14,1,-2,·,-15,1,5,
O=C(O)Cc1ccccc1C(=O)O,i,1,4,12,6,-18,11,6,
COc1ccc(S(=O)(=O)N2CCOC2CNC(=O)C(=O)NCCc2ccc(OC)c(OC)c2)cc1C (centres undefined),i,17,-1,-10,-61,·,7,-5,
CC(=O)c1ccc(N2CCN(C(=O)CCNC(=O)Cn3ccc4ccccc4c3=O)CC2)cc1,i,10,-2,-5,2,-7,-2,14,
CCCCNC(=S)N1CCN(c2ccccc2Cl)CC1,i,4,1,3,5,·,-9,-3,
Cc1ccc(C(=O)Nc2sc3c(c2C(=O)O)CCC(C)C3)o1 (centres undefined),·,22,-15,-14,20,-10,·,·,
COc1cccc(OC)c1C(=O)N1CCN=C1SCc1cccnc1,i,-4,5,12,-24,-19,-17,-13,
Fc1ccc(/C=N/Nc2ncnc3nc[nH]c23)cc1F,i,-2,3,5,-64,-14,3,16,
CCOC(=O)C1=C(C)N=C2SC=C(C)N2C1c1ccc(OC)cc1 (centres undefined),i,31,-6,-8,6,·,3,2,
CC(=O)N/C(=C\c1ccccc1)C(=O)Nc1ccccc1C,i,-17,-1,1,-28,-6,-8,-14,
COC(=O)c1ccc(NC(=O)C2CCCN(S(=O)(=O)c3cnc[nH]3)C2)cc1 (centres undefined),i,5,-3,4,-6,-2,7,-2,
Cc1ccnc(NC(c2ccccn2)c2c(C)[nH]c3ccccc23)c1 (centres undefined),i,3,-3,4,-148,·,10,-14,
COc1ccc(-c2nc(CN3CCCCC3c3cccnc3)c(C)o2)c(F)c1 (centres undefined),i,3,-8,-1,9,-13,1,5,
COc1ccc(/C=N/NC(=O)c2ccccc2[N+](=O)[O-])cc1CN1CCc2cc(OC)c(OC)cc2C1C (centres undefined),i,-3,9,3,-21,·,-6,10,
Cc1nc2sc(-c3ccccc3)cc2c(=O)n1/N=C/N(C)C,i,-6,1,4,-1,77,2,9,
O=C(OCc1nnc(-c2ccccc2)o1)c1ccc(CO)cc1,i,-17,-2,3,2,-7,-8,-4,
CCOC(=O)c1cccc(Nc2nc(C)cc(C)n2)c1,·,-6,-4,0,·,-20,-7,19,
CC1CN(C(=O)C(c2ccccc2)c2ccccc2)CC(C)O1 (centres undefined),i,·,0,5,10,2,6,0,
C=CCSc1nc2sc(C)c(C)c2c(=O)n1N,i,3,4,0,-37,·,3,6,
COCCOC(=O)C1=C(C)Nc2ncnn2C1c1ccco1 (centres undefined),i,-13,0,1,0,-17,2,-11,
CN(c1ccc(C(=O)NCc2ccccn2)cc1)S(=O)(=O)c1ccc(Cl)cc1,i,0,-1,-2,·,-2,-13,-12,
CC1(C)CC(=O)C(C2C3=C(CC(C)(C)CC3=O)OC3=C2C(=O)CC(C)(C)C3)=C(O)C1,i,1,2,1,-7,·,7,-2,
Fc1ccc(NC(=S)Nc2ccccc2OC(F)F)cc1Cl,i,·,0,1,28,·,8,10,
COc1cccc2c(N/N=C/c3ccco3)cc(C)nc12,·,6,3,2,-26,·,-2,9,
COc1cc2c(cc1NC(=O)COC(=O)[C@@H](NS(=O)(=O)c1ccccc1)C(C)C)oc1ccccc12,i,11,-7,-12,·,·,-5,3,
NCc1csc(NC(=O)Nc2cccc(Cl)c2)n1,·,·,0,4,-42,-9,·,·,
O=C(c1cc([N+](=O)[O-])cc([N+](=O)[O-])c1)N1CCN(Cc2ccc3c(c2)OCO3)CC1,i,1,4,-1,7,·,-23,-6,
Cc1onc(-c2ccccc2)c1C(=O)N1CCN(c2ccc([N+](=O)[O-])cc2)CC1,i,-6,3,-11,-70,3,-9,3,
N#CCCN1CCN(S(=O)(=O)c2ccc(S(=O)(=O)NC3CC3)cc2)CC1,i,-14,2,2,-4,-6,-5,9,
O=[N+]([O-])c1cccc(-c2csc(N/N=C/c3cccc(O)c3)n2)c1,i,87*,4,-13,-11,·,-5,0,
COc1ccccc1CNC(=O)CSc1nnc2ccc(-c3cccnc3)nn12,i,-6,7,2,-6,-21,1,-13,
CC(NCCOCCOc1ccccc1)c1ccccc1 (centres undefined),i,-13,1,1,1,·,7,-11,
COC(=O)c1ccc(NC(=O)Cc2ccc(F)cc2)cc1,i,8,5,2,11,-14,-3,-6,

# 6 consecutive records from above:
SMILES,Rce1 inh,CSC inhib,MT1-MMP act inh,MT1-MMP act inh RFP,Env fusion inh,UUG fidelity,eIF4H FP inh,PABP polyA inh,others
Cc1onc(-c2ccccc2)c1C(=O)N1CCN(c2ccc([N+](=O)[O-])cc2)CC1,i,-6,3,-11,-70,3,-9,3,
N#CCCN1CCN(S(=O)(=O)c2ccc(S(=O)(=O)NC3CC3)cc2)CC1,i,-14,2,2,-4,-6,-5,9,
O=[N+]([O-])c1cccc(-c2csc(N/N=C/c3cccc(O)c3)n2)c1,i,87*,4,-13,-11,·,-5,0,
COc1ccccc1CNC(=O)CSc1nnc2ccc(-c3cccnc3)nn12,i,-6,7,2,-6,-21,1,-13,
CC(NCCOCCOc1ccccc1)c1ccccc1 (centres undefined),i,-13,1,1,1,·,7,-11,
COC(=O)c1ccc(NC(=O)Cc2ccc(F)cc2)cc1,i,8,5,2,11,-14,-3,-6,

# (further entries)
SMILES,Rce1 inh,CSC inhib,MT1-MMP act inh,MT1-MMP act inh RFP,Env fusion inh,UUG fidelity,eIF4H FP inh,PABP polyA inh,others
NC(=O)COC(=O)CC(NC(N)=O)c1ccc(Cl)cc1 (centres undefined),i,-16,0,7,·,1,7,-1,
CC(=O)Nc1ccc(SCC(=O)c2cc(C)ccc2C)cc1,·,10,2,2,-9,-11,-7,12,
O=C(Oc1ccc(Cl)cc1)c1ccc(COC(=O)c2cnccn2)cc1,i,-6,1,-5,·,9,-7,-6,
c1csc(-c2noc(CN3CCN4CCCC4C3)n2)c1 (centres undefined),i,-3,-2,-1,5,-14,5,4,
COc1ccc(-c2nnn(CC(=O)N(c3cccc(O)c3)C(C)C(=O)NC3CCCC3)n2)cc1OC (centres undefined),i,-8,-1,3,41,·,29,3,
O=C(COC(=O)C1CCC(N2C(=O)C3C4CCC(C4)C3C2=O)CC1)c1ccc(F)cc1 (centres undefined),·,-3,-1,3,-7,-8,-14,4,
CCn1c(CC(=O)Nc2ccc(C)c(Cl)c2)nnc1SCCOc1ccc(OC)cc1,i,·,2,-1,6,3,3,-1,
CCN[C@H]1C[C@H](C)S(=O)(=O)c2sc(S(N)(=O)=O)cc21,·,-14,2,3,7,-7,·,·,

# Pulled by structure from the entries so far:
SMILES,Rce1 inh,CSC inhib,MT1-MMP act inh,MT1-MMP act inh RFP,Env fusion inh,UUG fidelity,eIF4H FP inh,PABP polyA inh,others
CCN[C@H]1C[C@H](C)S(=O)(=O)c2sc(S(N)(=O)=O)cc21,·,-14,2,3,7,-7,·,·,
COc1ccccc1CNC(=O)CSc1nnc2ccc(-c3cccnc3)nn12,i,-6,7,2,-6,-21,1,-13,
CC1(C)CC(=O)C(C2C3=C(CC(C)(C)CC3=O)OC3=C2C(=O)CC(C)(C)C3)=C(O)C1,i,1,2,1,-7,·,7,-2,
